Bioassay records deposited in PubChem BioAssay by several laboratories.
Arbovirus anti = blocks arbovirus infection; arbovirus infection cell-based antiviral screen; inhibition, % at 10 µM; 0.37% of 200,000 active; AID 1251;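 active means inhibition from about 30%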;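 further: bluetongue infection of BSR cells; cell survival read as ATP light after 72 h; 0% = infected wells without compound and 100% = uninfected wells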
Mtb H37Rv = M. tuberculosis H37Rv growth inhibitors, H37Rv strain (AID 1626) | 0.95% of 220,000 active | inhibition, % at 10 µM, or IC50 in µM where a hit was titrated | M. tuberculosis H37Rv growth inhibition; higher % means a stronger effect;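 active means confirmed in a dose series; inconclusive means inhibition above 80% but not taken into the dose series; inactive means below 80% or under 30% at every dose of the series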;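 further: bacteria incubated seven days before Alamar blue readout; 0% = bacteria only wells and 100% = bacteria with antibiotic wells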
RecA splice inh = blocks M. tuberculosis RecA intein splicing | P9WHJ3 | cell-free RecA intein splicing, fluorescence | inhibition, %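 (about 9 µM by stock and volumes)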 | 0.75% of 290,000 active | AID 2221; in the data active means inhibition above about 30%; inconclusive means no clear call, values can overlap the other calls;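 further: 0% = vehicle wells and 100% = reference inhibitor control wells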
Target sequence (P9WHJ3 whole entry, looked up, canonical isoform): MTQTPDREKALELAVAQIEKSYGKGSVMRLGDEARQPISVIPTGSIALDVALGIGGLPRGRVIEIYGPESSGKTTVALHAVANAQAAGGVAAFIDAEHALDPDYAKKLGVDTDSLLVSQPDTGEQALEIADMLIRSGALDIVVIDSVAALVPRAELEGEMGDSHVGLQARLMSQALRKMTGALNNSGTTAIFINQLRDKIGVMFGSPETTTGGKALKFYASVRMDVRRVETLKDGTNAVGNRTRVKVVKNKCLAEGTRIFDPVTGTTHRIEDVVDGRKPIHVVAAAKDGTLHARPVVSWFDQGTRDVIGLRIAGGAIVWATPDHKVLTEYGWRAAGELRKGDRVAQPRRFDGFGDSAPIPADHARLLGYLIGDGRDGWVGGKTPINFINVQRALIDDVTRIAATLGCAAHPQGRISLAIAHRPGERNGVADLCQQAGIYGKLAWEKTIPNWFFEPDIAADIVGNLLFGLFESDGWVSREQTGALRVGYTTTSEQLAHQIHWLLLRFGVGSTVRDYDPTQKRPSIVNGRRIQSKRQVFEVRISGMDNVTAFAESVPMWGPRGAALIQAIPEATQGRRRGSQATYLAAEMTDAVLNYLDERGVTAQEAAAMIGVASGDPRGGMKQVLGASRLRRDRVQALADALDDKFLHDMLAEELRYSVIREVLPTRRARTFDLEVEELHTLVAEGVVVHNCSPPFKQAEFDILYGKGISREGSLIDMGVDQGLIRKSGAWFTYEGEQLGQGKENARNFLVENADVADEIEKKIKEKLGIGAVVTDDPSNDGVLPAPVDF
YopH PTP inh = YopH (Yersinia) phosphatase inhibition. inhibition, %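 (about 10 µM by stock and volumes)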. 0.16% of 140,000 active. fluorescence Ex485/Em525. AID 898;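 active means inhibition of 50% or more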;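 further: controls were vehicle for no effect and minimum signal wells for full effect; inactives centre near -20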
Mtb betalactam = beta-lactam sensitization of Mtb H37Rv; M. tuberculosis H37Rv growth with meropenem, percent inhibition; hits of this screen are not shown here; inhibition, % at 25 µM; 0.27% of 330,000 active;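 active means about 74% or more and at least 40 points above the plate without the antibiotic, then above 30% in a dose series; inconclusive means first-round hits that could not be retested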;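 further: growth measured after seven days incubation then overnight dye step; 0% = bacteria only wells and 100% = bacteria with antibiotic; twin plates without the antibiotic show which effects depend on it; some results filed as inactive read as strong as hits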
Arbovirus anti repeat = further read-out of Arbovirus anti, marked with its call; inhibition, %; measured here: 10K subset replicate screen; many hits read low in the repeat;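 first of two repeat runs on a subset; 0% = infected and 100% = uninfected wells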
* hit, by the source's call; ? = inconclusive; . = no result given. This is a subset; count on the stated rates, not on these rows.

SMILES	Arbovirus anti	Mtb H37Rv	RecA splice inh	YopH PTP inh	Mtb betalactam	others
COc1ccc(C(NC(N)=O)c2ccccc2)cc1 (stereo not drawn)	5	-5%	0.6	8	9
O=C(c1cc(COc2ccc(F)cc2F)on1)N1CCN(C2CCCC2)C(=O)C1	.	.	-3.1	.	5
COc1ccc(-n2c(=O)c3ccccc3n(Cc3cccc(C)c3)c2=O)cc1OC	-4	5%	1.1	.	2
C=CCN1C(=O)c2ccc(C(=O)N3CCN(S(=O)(=O)c4ccc(C(C)C)cc4)CC3)cc2C1=O	.	.	-1.5	.	-3
O=C(Nc1cccnc1)c1c(F)cccc1F	-6	0%	-0.2	-25	-7
COc1ccc(-n2cnnc2SC(C)c2nc3sc(C)c(C)c3c(=O)[nH]2)cc1 (stereo not drawn)	1	0%	-4.8	-25	.
C/C(CC(=O)Nc1cccc(Cl)c1Cl)=N\NC(=O)C(=O)N1CCCC1	.	.	0.0	.	-10
Cc1ccc(C(=O)Nc2cccc([N+](=O)[O-])c2)cc1S(=O)(=O)Nc1ccc(C(=O)O)cc1	0	-4%	0.1	.	-5
Cc1ccc(NC(=O)CSCc2nc3c(nnn3Cc3ccc(F)cc3)c(=O)[nH]2)c(C)c1	-4	-2%	-18	.	-1
COc1ccc(CNC(=O)C2CCC(=O)N(CCCN3CCCC3=O)C2)c(OC)c1 (stereo not drawn)	.	.	-4.4	.	-1
Cc1c(CCC(=O)NCC(=O)O)c(=O)oc2cc3occ(-c4ccccc4)c3cc12	.	.	-2.6	.	-5
O=C(COc1ccccc1Cl)Nc1ccc(C(=O)c2ccc(C(=O)O)cc2)cc1	1	-2%	1.3	.	6
COc1ccc(NC(=O)CCN2CCN(S(=O)(=O)c3ccc(F)cc3)CC2)cc1	.	.	4.1	.	1
CCn1cnc2cc(NCc3ccc(N(C)C)cc3)ccc21	2	70%	5.1	.	80
O=C(Cc1ccccc1Cl)Nc1cccc(S(=O)(=O)N2CCOCC2)c1	-2	1%	0.6	-36	0
O=C(COC(=O)CCc1ccc(S(=O)(=O)N2CCOCC2)cc1)Nc1cccc(Cl)c1	0	-11%	-0.5	.	3
N#Cc1cccc(C#N)c1NCC1CCCO1 (stereo not drawn)	.	.	2.4	.	4
O=C(CCS(=O)(=O)c1cccc2nonc12)NCc1ccc(Cl)cc1	5	72%	.	.	93
Cc1ccnc(SCC(=O)Nc2cc(C)on2)n1	.	.	-1.7	.	-8
COc1ccc(/C=C2\C(=O)ON=C2c2ccccc2)cc1OC	.	.	-0.6	.	2
CC(=O)Nc1ccc(S(=O)(=O)NC2=NCN(c3ccc([N+](=O)[O-])cc3)CN2)cc1	.	.	-2.1	.	4
COc1cccc(/C=N/NC(=O)CSc2nnc(C)n2-c2ccccc2)c1O	-21	.	-4.5	-15	23
Cc1cc([N+](=O)[O-])cc2c1NC(c1ccccn1)C1CC=CC21 (stereo not drawn)	-2	-7%	-2.3	.	-1
CCOC(=O)c1c(NC(=O)CSc2nnc(-c3cccnc3)n2Cc2ccco2)sc(C)c1C	11	.	2.1	-45	-3
O=[N+]([O-])c1ccccc1CN1CCN(Cc2ccccn2)CC1	1	5%	0.5	.	-7
Cc1ccc(CNC(=O)CO/N=C/c2ccc3c(c2)OCO3)cc1	-13	4%	-1.0	-22	9
CC(C)(C)NC(=O)C(OC(=O)c1ccco1)c1ccccc1F (stereo not drawn)	.	.	0.5	.	-10
CCn1cc(CN2CCN(Cc3ccc(C)o3)C(CCO)C2)c2ccccc21 (stereo not drawn)	3	.	0.1	.	-5
CCOc1cc(/C=C2\COc3ccccc3C2=O)cc(Br)c1OCC(=O)N(C)C	.	.	14	.	99
COc1ccc(NC(=O)C(CCCCNC(=O)OC(C)(C)C)NC(=O)OCc2ccccc2)cc1 (stereo not drawn)	-13	3%	-3.4	-50	-11
CC(C)(C)NC(=O)NC(=O)COC(=O)Cn1cnc2ccccc2c1=O	3	0%	0.6	.	2
Cc1cc(C)nc(SCC(=O)c2ccc(F)cc2F)n1	.	.	1.5	.	5
COc1cc(/C=C2\C(=O)NC(=O)N(c3ccccc3)C2=O)c([N+](=O)[O-])cc1OC	-6	4%	-7.6	.	.
COc1ccc(C(=O)N/C(=C\c2ccccc2)C(=O)NCCCn2ccnc2)cc1	.	.	-2.5	.	4
COC(=O)c1nnn(-c2nonc2N)c1CSc1nnc(C)s1	2	.	0.5	.	0
O=C1CCCCN1CC(=O)N1CCCC(Nc2ccc(F)c(F)c2)C1 (stereo not drawn)	.	.	1.0	.	7
S=C(Nc1ccc(Cl)cc1)N1CCCCC1	5	-3%	4.3	-23	5
COc1cccc(Oc2nnnn2-c2ccccc2)c1	-6	6%	-0.6	-22	-11
Cc1c(C(c2ccccc2O)c2c(C)n(C)n(-c3ccccc3)c2=O)c(=O)n(-c2ccccc2)n1C	-1	-1%	1.2	.	-3
O=C(CN(Cc1ccc(Cl)cc1)S(=O)(=O)c1ccccc1)NCC1CCCO1 (stereo not drawn)	.	.	2.6	.	?
C/C=C\C(=O)Nc1cccc(C2=NOC3(C2)C[C@H](C(N)=O)N(C(=O)/C=C/CC)C3)c1 (stereo partly drawn)	.	-9%	-3.5	.	-6
CNc1ncc(C(=O)c2ccccc2)s1	-3	-6%	-1.6	-75	9
Cc1ccc(-c2nnc(SCc3ccccc3F)o2)cc1	-1	16%	0.9	-8	58
Cc1cc(OCC(=O)NCc2cccnc2)ccc1[N+](=O)[O-]	-1	7%	3.4	.	8
CC(C)C[C@H](NC(=O)N1CCn2c1nc1ccccc12)C(=O)N[C@@H](C(=O)O)c1ccccc1	.	.	0.6	.	-8
Cc1cc(S(=O)(=O)Nc2cccc(C(=O)O)c2)c(C)c(S(=O)(=O)c2ccc(Cl)cc2)c1	.	.	-1.5	.	-1
CC1CCCCN1C(=O)COc1ccc(F)cc1 (stereo not drawn)	-1	0%	.	.	-7
Cc1cc(-c2ccccc2)cc(-c2ccccc2)[n+]1C	4	-3%	-0.3	.	-3
Cn1c(SCC(=O)NC2CCCCC2)nnc1-c1cc2ccccc2o1	-7	2%	-9.0	-8	-8
NC(=O)c1ccc(-n2nnnc2SCC(=O)Nc2ccccc2-c2ccccc2)cc1	-3	3%	0.0	-28	3
CN(C)S(=O)(=O)c1ccc(C(=O)NCCOc2ccccc2)cc1	0	0%	0.0	-11	-4
CCCCNC(=O)CCC(=O)Nc1ccc2nc(N3CCC(C)CC3)cc(C)c2c1	-9	-8%	-0.1	.	7
O=C(CS(=O)(=O)c1cn(Cc2ccc(F)cc2)c2ccccc12)N1CCOCC1	3	3%	-4.1	.	-5
O=C(Cc1nn[nH]n1)Nc1cc(Cl)cc(Cl)c1	.	.	-1.4	.	-4
COc1ccc(NC(=O)C2=Cc3cccc(OC)c3OC2)cc1	-1	8%	0.7	.	12
CC(C)N(CCNC(=O)C1CCC(=O)N1Cc1ccc(F)cc1)Cc1ccccc1 (stereo not drawn)	4	-6%	0.4	-15	-24
CC(C)(C)c1ccc(OCCC(=O)Nc2cccc(S(=O)(=O)N3CCCCC3)c2)cc1	0	-1%	2.6	-3	10
NS(=O)(=O)OC(CCc1ccccc1)C(Cl)(Cl)Cl (stereo not drawn)	.	.	0.4	.	-7
CC(=O)NCC(=O)OCc1ccc([N+](=O)[O-])cc1	-3	-7%	-1.9	-26	4
CCCN(Cc1ccccc1)C(=S)NC(=O)c1ccccc1[N+](=O)[O-]	-5	9%	0.7	.	47

The last six entries of the section above open the next one:
SMILES	Arbovirus anti	Mtb H37Rv	RecA splice inh	YopH PTP inh	Mtb betalactam	others
COc1ccc(NC(=O)C2=Cc3cccc(OC)c3OC2)cc1	-1	8%	0.7	.	12
CC(C)N(CCNC(=O)C1CCC(=O)N1Cc1ccc(F)cc1)Cc1ccccc1 (stereo not drawn)	4	-6%	0.4	-15	-24
CC(C)(C)c1ccc(OCCC(=O)Nc2cccc(S(=O)(=O)N3CCCCC3)c2)cc1	0	-1%	2.6	-3	10
NS(=O)(=O)OC(CCc1ccccc1)C(Cl)(Cl)Cl (stereo not drawn)	.	.	0.4	.	-7
CC(=O)NCC(=O)OCc1ccc([N+](=O)[O-])cc1	-3	-7%	-1.9	-26	4
CCCN(Cc1ccccc1)C(=S)NC(=O)c1ccccc1[N+](=O)[O-]	-5	9%	0.7	.	47
O=C(CSc1nc2ccccc2s1)Nc1ccc2c(c1)oc1ccccc12	-1	?	1.6	-25	95
O=C(N/C(=C\c1ccco1)C(=O)N1CCCC1)c1ccccc1	.	.	-1.7	.	-1
COc1ccc(CN2CC(C(=O)NC3CCCCC3)CC2=O)cc1 (stereo not drawn)	.	.	-1.1	.	-7
OC(COc1ccccc1Cl)CN1CCN(CC(O)COc2ccccc2Cl)CC1 (stereo not drawn)	-27	17%	3.8	1	6	Arbovirus anti repeat=-13
COc1ccc(CCCc2nnc(SCC(=O)NN)o2)cc1	-9	2%	-3.7	.	1
CC(=O)Nc1ccc(N2CCOCC2)c(Cl)c1	3	-6%	1.4	.	0
O=C(Nc1cc(C(=O)N2CCN(c3ccccc3O)CC2)ccc1Cl)c1cccs1	.	.	1.9	.	-11
O=C(Nc1ccccc1N1CCOCC1)c1ccc(N2CCOCC2)c([N+](=O)[O-])c1	-2	7%	1.7	.	2
CCCCOc1cccc(NC(=O)CSc2nncn2C)c1	6	0%	-3.4	-11	?
C=CCNC(=O)c1ccccc1NC(=O)Cc1ccccc1[N+](=O)[O-]	-5	1%	-5.6	-13	-2
CCOC(=O)c1ccc(N2CCOCC2)c(NS(=O)(=O)c2ccc(F)cc2)c1	.	.	-0.3	.	-7
CCc1ccc(C2=NN(C(C)=O)C(c3ccco3)C2)cc1 (stereo not drawn)	-3	7%	3.1	.	-4
CCC(=O)c1cn(CC(=O)Nc2ccccc2)c2ccccc12	.	.	-0.8	.	-7
N#CC(c1cccnc1)N1CCOCC1 (stereo not drawn)	.	.	-1.0	.	-5
NC(=O)c1ccc(NC(=O)Cc2cccs2)cc1	.	.	4.1	.	-11

Arranged by length of the SMILES (ascending): some entries from above.
SMILES	Arbovirus anti	Mtb H37Rv	RecA splice inh	YopH PTP inh	Mtb betalactam	others
CC(=O)Nc1ccc(N2CCOCC2)c(Cl)c1	3	-6%	1.4	.	0
CCOC(=O)c1ccc(N2CCOCC2)c(NS(=O)(=O)c2ccc(F)cc2)c1	.	.	-0.3	.	-7
O=C(Nc1ccccc1N1CCOCC1)c1ccc(N2CCOCC2)c([N+](=O)[O-])c1	-2	7%	1.7	.	2

Next part.
SMILES	Arbovirus anti	Mtb H37Rv	RecA splice inh	YopH PTP inh	Mtb betalactam	others
COc1ccc(C(=O)Nc2c(N)nc(SCC(=O)N3CCC(C)CC3)[nH]c2=O)cc1	.	.	-3.8	.	-5
Cc1cc(/C=C(/C#N)C(=O)Nc2ccc(Cl)cc2)c(C)n1-c1cccnc1	-5	-4%	-3.3	-24	-4
COc1ccccc1NC(=O)C(CC=C(Cl)Cl)C(C)=O (stereo not drawn)	-1	-4%	2.1	-36	-8
COc1ccccc1NC(=O)c1ccccc1S(=O)(=O)c1ccc([N+](=O)[O-])cc1	.	.	1.7	.	?
COc1ccc(CNC(=O)CN(C)Cc2ccccc2F)cc1OC	.	.	-1.5	.	-8
CCS(=O)(=O)N1CCCC(C(=O)NCCc2ccc(OC)c(OC)c2)C1 (stereo not drawn)	2	8%	-1.6	-17	1
COc1ccc(-c2noc(N3CCC(C(=O)NCc4ccc(F)cc4)CC3)n2)cc1	.	.	-0.2	.	-1
COc1ccc(-c2nc3n(c(=O)c2C#N)CCCS3)cc1	-7	-2%	-2.8	-14	-8
Cc1ccc(S(=O)(=O)N(C(=O)c2ccco2)c2cc3sc(=O)oc3c3ccccc23)cc1	-29	12%	-12	12	4
COc1ccc(C(=O)CCN2CCN(c3ccccc3OC)CC2)cc1	-14	-8%	1.9	.	?
CCc1ccc(N(C(C)=O)C2C=CS(=O)(=O)C2)cc1 (stereo not drawn)	4	-6%	-0.7	1	-28
COc1ccc(CCN2CC(C(=O)NCCN3CCOC3=O)CCC2=O)cc1 (stereo not drawn)	.	.	-0.1	.	-3
C=CCn1c(Oc2cc(C)ccc2C)nc2c1c(=O)n(C)c(=O)n2C	28	2%	1.2	-16	6
CCN(CC)S(=O)(=O)c1cccc(C(=O)NC(C(=O)NC2=NCCS2)C(C)C)c1 (stereo not drawn)	-2	0%	2.3	-44	-3
O=C(Nc1cnc2sccn2c1=O)c1ccc(Cl)cc1Cl	-1	-8%	12	-3	-8
Cc1nc2c(=O)n(C)c(=O)[nH]c2n1Cc1ccccc1	-2	-1%	-2.0	-5	0
CCN(CCNC(=O)c1ccc(C#N)cc1)c1cccc(C)c1	.	.	-1.9	.	-7
CCOC(=O)c1ccc[n+](CC(=O)c2ccc(NC(=O)c3ccccc3)cc2)c1	.	.	-0.4	.	-1
